MT1-MMP promoter: MT1-MMP gene expression reporter suppression – cell-based, luciferase reporter, luminescence (AID 618); MT1-MMP promoter luciferase reporter cells, luminescence; 87,000 tested, 0.62% active; calls from a first round at 10 µM; hits with a dose series show EC50 in µM;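 active = over half of the reporter light lost at 10 µM or EC50 under 50 µM; inactive = the rest and hits that failed the dose series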;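 note: actives suppress MT1-MMP promoter-driven transcription so potencies describe inhibitors; HT1080 fibrosarcoma cells; overnight exposure; toxic or luciferase-blocking compounds were not removed from the actives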
WNV NS2B-NS3 inh: inhibitors of West Nile virus NS2B-NS3 protease | P06935 | WNV NS2B-NS3 protease, fluorogenic substrate Ex360/Em465; stronger effect = lower value | z-score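 (tested at a level between 10 and 100 µM)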 | 65,000 tested, 0.18% active;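 active = z-score at -3 or under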;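 note: score is relative to mean and spread of the compound wells of a plate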
Target sequence (P06935 1371-1501 limits assumed): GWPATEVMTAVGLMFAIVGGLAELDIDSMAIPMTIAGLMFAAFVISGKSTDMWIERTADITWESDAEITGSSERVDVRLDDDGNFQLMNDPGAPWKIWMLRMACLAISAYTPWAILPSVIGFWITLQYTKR
Target sequence (P06935 1502-1679 limits assumed): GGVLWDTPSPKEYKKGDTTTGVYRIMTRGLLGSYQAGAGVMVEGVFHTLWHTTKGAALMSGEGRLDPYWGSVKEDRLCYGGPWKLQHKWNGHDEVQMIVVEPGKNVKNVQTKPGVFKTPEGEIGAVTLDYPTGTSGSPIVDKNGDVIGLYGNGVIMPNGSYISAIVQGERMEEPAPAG
Hsc70: small molecules displacing fluorescent ligand from Hsc70 – biochemical, fluorescence polarization, primary screen (AID 568) | Hsc70 fluorescence polarization, probe displacement; higher % means a stronger effect; strong numbers were not always called active | one-dose displacement, % at 20 µM; IC50 in µM for titrated hits | 83,000 tested, under 10 active;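 active = displacement above 50% without optical interference and an IC50 on retest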;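 note: ATPase domain with a fluorescein-tagged ATP probe; 0% = vehicle and 100% = excess ADP; read after one hour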
The depositor's hits bear a star; i = inactive; . = no result given; + = active, no number. Rows are unselected; 0.8% or so of the library scored in one or more.

| molecule | MT1-MMP promoter | WNV NS2B-NS3 inh | Hsc70 |
| --- | --- | --- | --- |
| CCOC(=O)C1CCCN(c2nc(C)nc3c2oc2ccccc23)C1 (stereo not given) | i | 1.1 | -5.4% |
| COc1ccc(C2=Nn3c(nnc3-c3ccccn3)SC2)cc1OC | i | 1.1 | 1.4% |
| Cc1ccccc1CN(c1ccc(C(=O)Nc2ccccc2C(=O)NCc2ccco2)cc1)S(C)(=O)=O | i | . | 3.4% |
| COc1cccc(-c2nc(CS(=O)(=O)CC(=O)N3CCc4ccccc4C3)c(C)o2)c1 | i | 0.12 | 3.5% |
| O=C(Nc1ccc2snnc2c1)N1CCSCC1 | i | -1.4 | -1.7% |
| COc1ccccc1N=c1oc2cc(O)ccc2cc1C(N)=O | i | 0.73 | -57% |
| COc1ccc(-c2noc(CSc3nc4ccccc4c(=O)n3-c3ccccc3)n2)cc1 | i | 2.8 | -5.4% |
| O=C1CC2(CON=C2c2ccc(F)cc2)C(=O)N1c1ccc(F)cc1 (stereo not given) | i | -0.85 | 0.2% |
| COc1ccc(-n2nc3cc(C)c(N)c(Br)c3n2)cc1 | i | 0.96 | -2.5% |
| COc1cc(C(=S)N2CCCCC2)ccc1OCC(=O)N1CCCC1 | i | 0.65 | 2.2% |
| COC(=O)c1ccc(Oc2c(C)oc3c(CN4CCN(C)CC4)c(O)ccc3c2=O)cc1 | i | 1.8 | 1.6% |
| C=CCN1C(=O)C(C)(C)Nc2ccccc21 | i | -0.2 | -6.2% |
| CCCCn1c(SCC(=O)NCc2cccs2)nc2c1c(=O)n(C)c(=O)n2C | i | -0.23 | 0.6% |
| O=C(O)c1cc(S(=O)(=O)N2CCCCCC2)ccc1Cl | i | -0.89 | -1.4% |
| CCOC(=O)c1ccc(Oc2nc(SC)nc(N(C)C)n2)cc1 | i | -0.31 | 7.2% |
| COC(=O)Nc1nc2c(s1)CCCC2 | i | 2.1 | 2.0% |
| CCc1nnc(NC(=O)C(C)C)s1 | i | . | 0.4% |
| COc1ccc(OC)c(NC(=O)Cn2cccc2)c1 | i | -0.78 | -2.5% |
| Cc1cccc(NC(=O)C(C)Oc2ccccc2C)n1 (stereo not given) | i | -0.1 | 2.1% |
| O=C(O)C1[C@H]2C(=O)N(C3CCCC3)C[C@]23C=C[C@H]1O3 (stereo not given in full) | i | -0.08 | -6.5% |

Reprinted at random: 2 records from the list
| molecule | MT1-MMP promoter | WNV NS2B-NS3 inh | Hsc70 |
| --- | --- | --- | --- |
| COc1cc(C(=S)N2CCCCC2)ccc1OCC(=O)N1CCCC1 | i | 0.65 | 2.2% |
| CCc1nnc(NC(=O)C(C)C)s1 | i | . | 0.4% |

Molecules shown so far containing a COOH group:
| molecule | MT1-MMP promoter | WNV NS2B-NS3 inh | Hsc70 |
| --- | --- | --- | --- |
| O=C(O)c1cc(S(=O)(=O)N2CCCCCC2)ccc1Cl | i | -0.89 | -1.4% |
| O=C(O)C1[C@H]2C(=O)N(C3CCCC3)C[C@]23C=C[C@H]1O3 (stereo not given in full) | i | -0.08 | -6.5% |

Other compounds
| molecule | MT1-MMP promoter | WNV NS2B-NS3 inh | Hsc70 |
| --- | --- | --- | --- |
| COc1ccc(C2C3=C(CCCC3=O)Nc3nc(SCc4ccccc4)nn32)cc1OC (stereo not given) | i | 0.37 | -0.1% |
| Cc1ccc(-c2nnn(CC(=O)Nc3ccc4nn(-c5ccccc5)nc4c3)n2)o1 | i | 0.04 | -18% |
| CCn1c(=O)cc(N2CCC3(CC2)OCCO3)[nH]c1=O | i | -1.2 | 3.9% |
| COc1ccc(C2C3=C(CC(C)(C)CC3=O)Oc3ncn(CCCn4ccnc4)c(=N)c32)cc1 (stereo not given) | i | -0.72 | -4.3% |
| COc1cc(CCC(=O)Nc2cc(Cl)ccc2N2CCN(C)CC2)cc(OC)c1OC | i | 0.87 | -4.6% |
| O=C(c1ccccc1Nc1ccc(SC(F)F)cc1)N1CCCCCC1 | i | . | 1.5% |
| Cn1c(=O)c2c(nc(CN3CCN(Cc4ccccc4)CC3)n2Cc2cccc(Cl)c2)n(C)c1=O | i | -0.43 | -1.4% |
| CC(C(=O)NCC1(c2ccccc2)CCCC1)N1CCCC1 (stereo not given) | i | 0.66 | 2.0% |
| O=C1OC(N2CCN(c3ccccn3)CC2)c2ccccc21 (stereo not given) | i | 0.13 | -1.7% |
| CCOc1ccccc1N(C(=O)c1snc(C(N)=O)c1N)C(C(=O)NCCC(C)C)c1ccco1 (stereo not given) | i | -0.8 | -7.4% |
| COc1ccccc1NC(=O)c1nc[nH]c1C(=O)Nc1ccccc1OC | i | -0.14 | -2.3% |
| Cn1c(N)c(C(=O)COC(=O)c2ccc3c(c2)OCCO3)c(=O)n(C)c1=O | i | -0.18 | 5.0% |
| COc1ccc(S(=O)(=O)Nc2ccc(S(=O)(=O)N3CCOCC3)cc2)cc1C | i | -0.15 | -7.3% |
| COC(=O)CC1SC(=O)NC1=Nc1ccc(O)cc1 (stereo not given) | i | . | 1.3% |
| COc1ccc(C(=O)N=c2nc3ccccn3s2)cc1 | i | -1.4 | 1.9% |
| O=C(Cc1c(O)c2ccccc2[nH]c1=O)NCc1ccccc1F | i | 0.07 | 3.1% |
| CC(=O)c1cccc(N(C(=O)Cn2nnc3ccccc32)C(C(=O)NC2CCCCC2)c2cn(C)nc2C)c1 (stereo not given) | i | . | 1.3% |
| Cc1nnc2ccc(N3CCC4(CC3)OCCO4)nn12 | i | 1 | 1.8% |
| C/C(=C(\C#N)C(=O)NCc1ccccc1)N(C)C | i | . | -3.1% |
| N#CC1(c2ccccc2)CCCN1C(=O)c1ccco1 (stereo not given) | i | 1.9 | 3.2% |

Single records, from the list above. Values in the order: MT1-MMP promoter	WNV NS2B-NS3 inh	Hsc70
Entry for Cn1c(=O)c2c(nc(CN3CCN(Cc4ccccc4)CC3)n2Cc2cccc(Cl)c2)n(C)c1=O → i	-0.43	-1.4%
Entry for N#CC1(c2ccccc2)CCCN1C(=O)c1ccco1 (stereo not given) → i	1.9	3.2%

(cont.)
| molecule | MT1-MMP promoter | WNV NS2B-NS3 inh | Hsc70 |
| --- | --- | --- | --- |
| O=C(CSc1nc2ccccc2c(=O)[nH]1)Nc1ccc(S(=O)(=O)N2CCCC2)cc1 | i | 1.2 | -5.2% |
| CC(=O)Nc1ccc(Oc2nc(C)cc(C)n2)cc1 | i | 1.5 | 6.7% |
| N=C1C(c2nc3ccccc3[nH]2)=C(O)CN1c1ccccc1 | i | 4.4 | -6.6% |
| O=c1c2cc3c(=O)n(CC4CCCO4)c(=O)c3cc2c(=O)n1CC1CCCO1 (stereo not given) | i | -2.5 | -6.2% |
| CCOC(=O)c1[nH]c(C)c(C)c1C | i | -0.46 | 2.8% |
| COC(=O)c1cc(NC(=O)C2CCCN(S(=O)(=O)c3c(C)n[nH]c3C)C2)cc(C(=O)OC)c1 (stereo not given) | i | . | 1.5% |
| CCN(CCCNC(=O)Cn1ncc2c(=O)oc3ccccc3c21)c1cccc(C)c1 | i | -0.63 | -1.9% |
| COc1cccc(C(=O)Nc2ccccc2N2CCOCC2)c1 | i | -0.4 | 5.8% |
| CCN1C(=O)/C(=C2/Sc3ccc(OC)cc3N2C)SC1=Nc1ccc(C)cc1 | i | . | -8.9% |
| Cc1ccc(N2C(=O)N(CC(=O)NCc3ccc(Cl)cc3)C(=O)C2C)cc1 (stereo not given) | i | . | -7.0% |
| CCCc1nc2c(nnn2Cc2ccccc2)c(=O)[nH]1 | i | -0.31 | -3.4% |
| COc1cccc(C(=O)Nc2ccc(NC(=O)C(C)(C)C)cn2)c1 | + | -0.81 | 2.8% |
| COc1ccccc1NC(=O)N(Cc1cc2cc(OC)c(OC)cc2[nH]c1=O)CC1CCCO1 (stereo not given) | i | -0.65 | 1.9% |
| Cc1cc(NC(=O)C2C3C=CC(C3)C2C(=O)O)no1 (stereo not given) | i | . | 2.5% |
| N#Cc1ccc(-c2ccc(OCC(O)Cn3nnc4ccccc43)cc2)cc1 (stereo not given) | i | -0.89 | -6.2% |
| Clc1ccccc1-c1nnc2sc(-c3ccncc3)nn12 | i | 1 | 5.9% |
| CCCC(C(=O)NC1CCCC1)N(C(=O)Cn1nnc(-c2ccc(C)o2)n1)c1ccccc1OC (stereo not given) | i | -0.71 | -2.2% |
| CCn1c(O)c(C2=NCCCC2)c2ccccc21 | i | -0.38 | 0.7% |
| Cc1ccc(-n2ncc3c(=O)n(CC(=O)NCc4ccco4)cnc32)cc1C | i | 0.18 | 8.0% |
| COc1cc2c(cc1NC(=O)CSc1nnnn1-c1ccccc1)oc1ccccc12 | i | -0.21 | 0.9% |
| COc1ccc(/C(N)=N/OC(=O)c2cccc([N+](=O)[O-])c2)cc1 | i | . | 1.9% |
| COc1ccc(OC)c(-c2cc(C(=O)Nc3cccc(Cl)c3)no2)c1 | i | 1.2 | 3.6% |
| COc1ccc(N(C(=O)C2CCCCC2)C2C=CS(=O)(=O)C2)c(OC)c1 (stereo not given) | i | -1.1 | -11% |
| COc1cc2c3c(c1)/C(=C1/SC(NC(C)=O)=NC1=O)C(=O)N3C(C)(C)C=C2C | i | -0.27 | 0.7% |
| Cc1ccccc1N1C(N)=NC(N)=NC1(C)C | i | -0.12 | -0.2% |
| COC(=O)c1cc(NC(=O)C2COc3ccccc3O2)ccc1Cl (stereo not given) | i | -1.4 | -0.8% |
| O=C(CN(CCc1ccccc1)C(=O)CNS(=O)(=O)c1ccccc1)NCc1ccco1 | i | -0.69 | -1.6% |
| CCOC(=O)N1CCC(NC(=O)CC(NS(=O)(=O)c2ccc(Cl)cc2)c2ccco2)CC1 (stereo not given) | i | 0.53 | 0.5% |
| O=C(NC1(C(=O)NC2CCCCC2)CCCCC1)c1ccccn1 | i | . | 0.8% |
| O=C(CSc1nnc(CNc2ccc(F)cc2)n1Cc1ccccc1)N1CCOCC1 | i | 0.65 | -2.9% |
| CCOc1ccc(N2C(=O)c3ccc(C(=O)OCc4c(C)noc4C)cc3C2=O)cc1 | i | -0.71 | 5.2% |
| Cc1ccc(N2CC(C(=O)Nc3nnc(C(C)C)s3)CC2=O)cc1 (stereo not given) | i | -1.1 | 4.1% |
| N#CCn1nnc(-c2ccc3c(c2)OCO3)n1 | i | -0.61 | -3.6% |
| CCOCC(=O)Nc1ccccc1C(=O)OCC | i | 0.76 | 8.0% |
| COC(=O)C1=C(C)Nc2nnnn2C1c1ccco1 (stereo not given) | i | 1 | -1.6% |
| COc1ccc(C(=O)NC(=O)CSc2nnc(-c3ccco3)n2-c2ccccc2)cc1 | i | -1.7 | -2.8% |
| NC(=O)c1ccc(NC(=O)C2CCCO2)cc1 (stereo not given) | i | . | 3.7% |
| CC(Sc1nc2ccccc2o1)C(=O)O (stereo not given) | i | -0.16 | -2.0% |
| CCc1nnc(SCC(=O)N2CCCc3ccccc32)nc1CC | i | -0.5 | 3.6% |
| CCCCN(CC)S(=O)(=O)c1ccc(C(=O)Nc2nnc(-c3ccccc3Cl)o2)cc1 | i | 3.5 | 1.7% |
| c1coc(Cn2nnnc2CN2CCN(C3CCCCC3)CC2)c1 | i | -0.28 | -3.9% |
| Cc1[nH]nc2c1C(Cc1ccccc1)C(C#N)=C(N)O2 (stereo not given) | i | 0.1 | 3.1% |
| CCOc1ccc(CN2CCC(=O)NC2=O)cc1 | i | 2.1 | 1.4% |
| CCCSc1nc2c(c(=O)[nH]c(=O)n2C)n1C | i | 1.1 | 1.3% |
| CC(c1ccccc1)C1CC(=O)N(C2CCCCC2)C1=O (stereo not given) | i | . | 5.9% |
| COc1ccc(-c2nnc(SCC(=O)c3[nH]c(C)c(C(C)=O)c3C)o2)cc1 | i | -0.46 | -8.5% |
| COCCn1nnnc1C(c1ccc(OC)cc1OC)N1CCN(c2ccccc2F)CC1 (stereo not given) | i | -1.4 | 0.5% |
| CCCCOCCCNC(=O)N[C@H](C(=O)OC)C(C)C | i | -0.71 | -5.2% |
| Cn1c(=O)c2c(nc(SC3C(=O)CC(C)(C)CC3=O)n2C)n(C)c1=O | i | 0.86 | -4.9% |
| COc1ccc(OC)c(NC(=O)C2CCC(CNc3c(N4CCC(C)CC4)c(=O)c3=O)CC2)c1 (stereo not given) | i | -0.04 | 4.0% |
| Cc1c(C(=O)NC(C)CN2CCCCC2)oc2ccccc12 (stereo not given) | i | 1 | 0.0% |
| COC(=O)c1c(C)[nH]c(C)c1-c1ccccc1 | i | -0.18 | -4.0% |
| CCOc1cc(NC(=O)C2CC2)c(OCC)cc1NC(=O)c1ccccn1 | i | -1.1 | -2.1% |
| CCOC(=O)c1[nH]c2cc(OC)c(OC)cc2c1NC(=O)c1nonc1C | i | -0.19 | 2.8% |
| CCOc1ccc2[nH]c(C)cc(=O)c2c1 | i | 0.34 | 4.3% |
| Cc1cc(=O)oc2cc(OCC(=O)Nc3nnc(C(C)C)s3)ccc12 | i | . | -2.2% |
| Cc1cc(C)cc(N(CC(=O)N2CCn3c2nc2ccccc23)S(=O)(=O)c2c(C)noc2C)c1 | i | 0.59 | 4.8% |
| CCc1nnc(NC(=O)Cn2nc(-c3ccc(OC)c(OC)c3)ccc2=O)s1 | i | . | 3.1% |
| Cc1ccn2c(NC(=O)c3ccco3)c(-c3ccccc3)nc2c1 | i | . | 3.3% |
| Cc1ccc(-n2nc3c(c2NC(=O)CCC2CCCCC2)CS(=O)C3)cc1 (stereo not given) | i | -0.01 | -1.8% |
| Cc1cc(Cl)c(S(N)(=O)=O)cc1OCC(N)=O | i | -0.0066 | 0.9% |
| COc1cc(C(=O)OCC(=O)Nc2c(F)c(F)c(F)c(F)c2F)cc(OC)c1OC | i | -0.56 | 1.8% |
